Assay outcomes from PubChem BioAssay.
Mtb growth = Confirmatory growth inhibition assay against Mycobacterium tuberculosis H37Rv, potency (AID 1949); most inactive calls were filed without a number and no value below 0 was filed; inhibition, % at 10 µg/mL, or IC50 in µg/mL where a hit was titrated; 1.6% of 100,000 active;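 active = confirmed in a dose series; inconclusive = about 50% or more but not retested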;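 also: bacteria grown 7 days with compound before Alamar blue readout; 0% = untreated bacteria and 100% = reference antibiotic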
Starred values were filed as active, the others as inactive; i = inactive; ? = inconclusive.

A first look, three compounds:
SMILES	Mtb growth
Cc1ccc(NC(=O)c2cc([N+](=O)[O-])ccc2N2CCCCC2)cc1	i
Cc1c(C(=O)Nc2ccccc2)sc2ncn(CC#N)c(=O)c12	i
COc1ccc(NC(=S)Nc2cccc(Cl)c2Cl)cc1OC	i

Main list, previewed entries included:
SMILES	Mtb growth
Cc1ccc(NC(=O)c2cc([N+](=O)[O-])ccc2N2CCCCC2)cc1	i
Cc1c(C(=O)Nc2ccccc2)sc2ncn(CC#N)c(=O)c12	i
COc1ccc(NC(=S)Nc2cccc(Cl)c2Cl)cc1OC	i
OCCNC/C=C/c1c(F)c(F)c(F)c(F)c1F	i
COc1cc(OC)cc(C(=O)N(C)CCc2ccccn2)c1	i
O=C(CC12CC3CC(CC(C3)C1)C2)NC(=S)Nc1ccc2oc(-c3cccnc3)nc2c1	i
Cc1nc2ccc(NC(=O)N3CCCCCC3)cc2nc1C	i
CCOc1ccc(NC(=O)c2cnsn2)cc1	27.2%
O=C(NCCOc1ccc(Cl)cc1)C1CC(=O)N(c2ccc(F)cc2)C1 (stereo unspecified)	i
COc1ccccc1Oc1c(F)c(F)c(/C=C/CN2CCCCC2)c(F)c1F	i
Cn1c(=O)c2c(nc(SCCCCC#N)n2Cc2ccccc2Cl)n(C)c1=O	i
CCCCC(=O)NNC(=S)Nc1ccccc1	i

Random excerpt: 6 records from the list, in no set order.
SMILES	Mtb growth
O=C(NCCOc1ccc(Cl)cc1)C1CC(=O)N(c2ccc(F)cc2)C1 (stereo unspecified)	i
Cc1c(C(=O)Nc2ccccc2)sc2ncn(CC#N)c(=O)c12	i
COc1ccc(NC(=S)Nc2cccc(Cl)c2Cl)cc1OC	i
O=C(CC12CC3CC(CC(C3)C1)C2)NC(=S)Nc1ccc2oc(-c3cccnc3)nc2c1	i
CCOc1ccc(NC(=O)c2cnsn2)cc1	27.2%
OCCNC/C=C/c1c(F)c(F)c(F)c(F)c1F	i

More structures.
SMILES	Mtb growth
O=C(Nc1ccccc1-c1nc2ccccc2s1)c1cc2ccccc2o1	1.8%
COc1cc(NS(=O)(=O)c2ccc3ccccc3c2)c2ncccc2c1	i
CCc1ccc(N(CC(=O)Nc2ccc(OC)c(Cl)c2)S(C)(=O)=O)cc1	1.0%
O=S(=O)(c1ccc(F)cc1)N1CCN(C(=S)NC2CCCC2)CC1	i
C/C(=N\N=C1\NC(=O)C(CC(=O)Nc2cccc(Cl)c2Cl)S1)c1ccc(Cl)cc1 (stereo unspecified)	i
COc1ccc(NC(=O)Nc2ccc3oc(C)nc3c2)cc1	0.9%
COC(=O)c1sc(NC(=O)c2ccoc2C)nc1C	i
Cc1sc2ncn(N)c(=O)c2c1-c1ccc(F)cc1	i
Cc1ccccc1NC(=O)C(=O)NCc1ccncc1	1.9%
Nc1ccc(Oc2ccc3nc4c(nc3c2)-c2cccc3cccc-4c23)cc1	i
CC(=O)c1ccc(NS(=O)(=O)c2ccc(Cl)c(C(F)(F)F)c2)cc1	i
CCCC(=O)n1nc(-c2ccco2)nc1N	i
O=C(O)c1cccnc1C(=O)Nc1nc2ccccc2s1	i
CCc1cc2c(=O)c(Oc3ccc(F)cc3)coc2cc1OC(C)=O	i
COC(=O)c1cc(OC)c(OC)cc1NC(=O)c1ccccc1-c1ccccc1	i
Cc1ccc(C2C=C(c3ccccc3)Nc3nc(NC(=O)c4cccs4)nn32)cc1 (stereo unspecified)	?
COc1cc(C(=O)N2CCCC2C(=O)O)cc(OC)c1OC (stereo unspecified)	i
Cc1cc(C)nc(SCc2nnc(Nc3ccc(S(N)(=O)=O)cc3)s2)n1	i
CC(NC(=O)CSc1nnc(CCCOc2ccc(Cl)cc2Cl)o1)c1ccccc1 (stereo unspecified)	i
Cc1c(NC(=O)C(=O)c2c(-c3ccccc3)cc3ccccn23)c(=O)n(-c2ccccc2)n1C	i
COC(=O)C(NC(=O)CC12CC3CC(CC(C3)C1)C2)C(C)C (stereo unspecified)	0.9%
O=S(=O)(NCCc1ccccc1)c1cccc(Cl)c1	1.2%
O=C(NC(=S)Nc1ccc(Cl)cc1-c1nc2ccccc2s1)c1ccc(F)cc1	4.8%
CCOC(=O)c1sc(NC(=S)Nc2cc(OC)c(OC)cc2C(=O)OC)c(C(=O)OCC)c1C	i
CN(C)C(=O)c1ccccc1NC(=O)c1ccc(Cl)cc1Cl	i
COc1ccc(OC)c(NC(=O)CN2CCN(c3ccccn3)CC2)c1	0.0%
CC(=O)Nc1ccc(C(=O)Nc2nnc(C3CCCCC3)s2)cc1	i
CCn1c(SCc2cccc(OC)c2)nnc1-c1cccnc1	i
CC(C)(C)C(=O)Nc1ccccc1C(=O)Nc1nccs1	i
COc1ccc(NC(=O)c2ccc(N(Cc3ccc(Cl)cc3)S(C)(=O)=O)cc2)cc1OC	i
COC(=O)c1cn(C(=O)OC)c2ccccc12	i
Cc1nn(C(=O)c2cccnc2)c(C)c1C	i
CN(C)CCOc1ccccc1C(C)(C)C	i
Cn1ccnc1CC(O)(c1ccccc1)c1ccccc1	4.5%
CCC(C)c1ccccc1OCCn1cnc2ccccc21 (stereo unspecified)	19.4%
CCOc1ccc2[nH]c(=O)c(C=O)cc2c1	i
O=c1[nH]c(/C=C\c2ccc(-c3ccccc3)o2)c([N+](=O)[O-])c(=O)[nH]1	i
COc1cc(Br)cc(-c2nc3sc4c(c3c(=O)[nH]2)CCCCCC4)c1O	5.2%
CC(=O)c1cccc(-n2nnnc2S(C)(=O)=O)c1	2.75µg/mL*
O=C(c1ccc2nc(-c3ccccc3)c(-c3ccccc3)nc2c1)N1CCN(c2ncccn2)CC1	0.2%
O=C(Cn1nc(-c2ccc(Cl)cc2)c2ccccc2c1=O)N1CCOCC1	i
CC(C)(C)c1ccc(C(=O)Nc2cc(C(F)(F)F)ccc2N2CCOCC2)cc1	i
CC1CN(C(=S)NCc2ccco2)CC(C)O1 (stereo unspecified)	i
COc1cc(C(=O)O)ccc1OCC(C)C	i
O=C(NCc1ccco1)c1ccc(-c2cccc(C(F)(F)F)c2)o1	i
COC(=O)c1c(NC(=O)COc2ccccc2)sc(C(N)=O)c1C	i
CC(C)c1ccc(OCC(=O)Nc2ccc(C(N)=O)cc2)c(Br)c1	i
COc1ccc(OCC(=O)NC(=S)Nc2ccc(C(=O)O)c(Cl)c2)cc1	i
S=c1[nH]nc(-c2ccncc2)n1-c1ccc2c(c1)OCO2	i
Nc1nncn1C(=O)CCCOc1ccccc1	i
C=CCn1c(SCC(=O)NCC2CCCO2)nc2sc3c(c2c1=O)CCC3 (stereo unspecified)	i
O=C(NC(=S)Nc1ccc(S(=O)(=O)N2CCCC2)cc1)c1ccc(Cl)cc1Cl	i
Cc1nc(N2CCC(C)CC2)nc(N2CCC(C)CC2)c1[N+](=O)[O-]	1.6%
CCOc1ccc(NC(=S)NNC(=O)c2ccc(F)cc2)cc1	i
CC(C)c1ccc(C2c3c(oc4ccc(Cl)cc4c3=O)C(=O)N2Cc2ccccc2)cc1 (stereo unspecified)	i
COc1cccc(NC(=O)C(=O)NCC(C)C)c1	2.4%
Cc1cc(C)c(-c2cc(C(F)(F)F)[nH]n2)c(=O)[nH]1	i
COc1ccc(NC(=S)Nc2ccc(C(=O)N3CCCC3)cc2)cc1	i
COc1ccc(OC)c(N(CC(=O)Nc2cccc(C)c2C)S(=O)(=O)c2ccc(C)cc2)c1	i
COc1ccccc1NC(=O)C1COc2ccccc2O1 (stereo unspecified)	31.4%

Carrying on:
SMILES	Mtb growth
COc1ccc(C(=O)Nc2ccc(CN3CCOCC3)cc2)cc1Cl	i
CCOc1nc(C)ccc1-c1noc(-c2ccncc2)n1	i
CCOc1ccc(C2CC(c3ccc(Br)cc3)Nc3nc(N)nn32)cc1 (stereo unspecified)	i
CCc1c(C)sc(NC(=O)c2cccc(F)c2)c1C(=O)OC	17.5%
CCOC(=O)Cn1cc(C(=O)c2ccccc2F)c2ccccc21	i
N#Cc1cccc(NC(=O)c2ccc(I)cc2)c1	i
CCOc1ccc(C(=O)NC(=S)Nc2cc(Cl)c(Cl)cc2Cl)cc1Br	i
CCOC(=O)CNC(=O)c1cc2c(s1)CCC(CC)C2 (stereo unspecified)	i
O=S(=O)(NCCC1=CCCCC1)c1ccc(I)cc1	16.1%
O=C(O)c1ccc(NC(=S)NC(=O)c2sc3ccccc3c2Cl)cc1	i
Cc1ccc(NC(=O)CN(C)S(=O)(=O)c2ccc(Cl)cc2)cc1C	0.1%
CCc1cccc(CC)c1NC(=O)c1ccc(N)cc1	3.0%

Some of the entries so far, as a markdown table.
| canonical_smiles | Mtb growth |
| --- | --- |
| CCOc1ccc(C2CC(c3ccc(Br)cc3)Nc3nc(N)nn32)cc1 (stereo unspecified) | i |
| CCc1c(C)sc(NC(=O)c2cccc(F)c2)c1C(=O)OC | 17.5% |
| CCOC(=O)Cn1cc(C(=O)c2ccccc2F)c2ccccc21 | i |
| N#Cc1cccc(NC(=O)c2ccc(I)cc2)c1 | i |
| CCOc1ccc(C(=O)NC(=S)Nc2cc(Cl)c(Cl)cc2Cl)cc1Br | i |
| CCOC(=O)CNC(=O)c1cc2c(s1)CCC(CC)C2 (stereo unspecified) | i |

(listing goes on)
SMILES	Mtb growth
CCCCOc1ccccc1NC(=O)c1cc2ccccc2oc1=O	i
O=C(Cc1cccs1)NCc1cccs1	i
CCN(CC)S(=O)(=O)c1csc(C(=O)Nc2ccccc2)c1	i
Cc1cc(OCC(=O)NCC2CCCO2)cc(C)c1Br (stereo unspecified)	i
COc1ccc(/C=C(/C#N)S(=O)(=O)c2ccccc2)cc1CN1CCSCC1	i
COC(=O)c1ccccc1NC(=O)N1CCN(C/C=C/c2ccccc2)CC1	i
Cc1cc(C)cc(CSCC(=O)Nc2cc(C)cc(C)c2)c1	3.6%
Cc1ccccc1C(=O)Nc1cccc(NC(=O)c2cncc(Br)c2)c1	i
O=C(CSc1nnc(-c2ccco2)o1)Nc1ccccc1F	i
COc1cc(S(=O)(=O)NC2CCCCC2)c(C)cc1C	4.9%
CCC(C)C(NC(=O)c1ccccc1NC(=O)c1ccccc1)C(=O)Nc1ccccc1 (stereo unspecified)	i
Cc1c(NC(=O)c2cc(-c3ccc4c(c3)OCO4)nc3ccccc23)c(=O)n(-c2ccccc2)n1C	i
CCS(=O)(=O)N1CCC(C(=O)Nc2cc(C)ccc2O)CC1	i
N#Cc1ccc(C(=O)Nc2cccc(NC(=O)c3ccco3)c2)c(F)c1	i
O=C(CSCCO)Nc1cccc2ccccc12	i
Cc1cccc(OCC(=O)NN2C(=O)C3C4C=CC(O4)C3C2=O)c1 (stereo unspecified)	i
COc1ccc(OCC(=O)Nc2ccc(C(N)=O)cc2)cc1	i
Cc1ccccc1CN(c1ccc(C(=O)Nc2cccc(N(C)S(C)(=O)=O)c2)cc1)S(C)(=O)=O	i
O=C(c1cccc2ccccc12)N1CCN(C(=O)c2cccc3ccccc23)CC1	i
COC(=O)c1c(C)oc2ccc(OCC(=O)OC(C)C)cc12	48.6%
O=C(NC(=S)Nc1cccc(F)c1)c1ccc(Cl)c(Cl)c1	2.3%
O=S(=O)(c1cccc(C(F)(F)F)c1)N1CCC(Cc2ccccc2)CC1	i
CSc1ccc(S(=O)(=O)N2CCCCCC2)cc1	i
COCCCNC(=O)Nc1ccc(OC)cc1	i
COC(=O)C1=C(C)NC(=O)NC1c1c(Cl)cccc1Cl (stereo unspecified)	i
COc1ccccc1C(=O)Nc1cccc(Oc2ccc3c(c2)C(=O)NC3=O)c1	i
CC(=O)Nc1ccccc1-c1nc2ccccc2nc1OCc1ccc(Br)cc1	2.0%
CCCOc1ccc(C(=O)N2CCN(c3ccc(NC(=O)CC)cc3Cl)CC2)cc1	2.4%
Cc1ccc(NC(=O)c2ccc(F)cc2C)cc1	1.9%
COc1ccc(N(CC(=O)Nc2ccc(Br)cc2)S(=O)(=O)c2ccc(C)cc2)c(OC)c1	1.2%
CCn1c(SCc2cccc3ccccc23)nnc1-c1ccc([N+](=O)[O-])cc1	15.8%
CN(CC(=O)NC1CCCCC1)S(=O)(=O)c1ccc(Cl)cc1	i
COc1ccc(NC(=S)Nc2cc(C)cc(C)c2)c(OC)c1	i
O=C(Nc1ccccc1)Nc1nnc(-c2ccccc2I)s1	i
COC(=O)c1ccc(OCC(=O)c2cccc(OC)c2)cc1	4.7%
Cc1ccnc(N(C(=O)c2cccs2)C(=O)c2cccs2)c1	i
CC1(C)NC(=O)N(CCCOc2ccc(C(C)(C)c3ccccc3)cc2)C1=O	0.2%
COc1ccc2c(C)c(CCC(=O)O)c(=O)oc2c1C	i
CS(=O)(=O)N(CC(=O)Nc1ccccc1C(=O)NCc1ccco1)c1ccc(I)cc1	i
Cc1cccc(NC(=O)Nc2nc(C)cs2)c1	i
CC1=C(C(N)=O)C(c2ccc(Cl)c(Cl)c2)NC(=O)N1 (stereo unspecified)	i
O=C(Nc1cnc2ccccn2c1=O)c1ccc(F)cc1	i
O=S(=O)(Cc1ccc(Cl)cc1)NCc1ccccn1	i
C=CCn1c(SCC(=O)c2ccc([N+](=O)[O-])cc2)nnc1C12CC3CC(CC(C3)C1)C2	0.8%
COc1ccccc1C1CC(=O)NC(SCC(=O)Nc2ccc(F)cc2)=C1C#N (stereo unspecified)	i
CC(Sc1nc(N)c2c3c(sc2n1)COC(C)(C)C3)C(=O)Nc1ccccc1 (stereo unspecified)	i
CN(CC(=O)N1CCc2ccccc2C1)S(=O)(=O)c1ccc(Br)cc1	i
CCOC(=O)NC1(C(F)(F)F)C(=O)N(Cc2ccccc2)C2=C1C(=O)CC(C)(C)C2 (stereo unspecified)	i
CC(=O)Nc1c(O)n(-c2ccccc2)c(=S)[nH]c1=O	8.4%
Cc1cc(C)cc(C(=O)Nc2cc(-c3nc4ccccc4s3)ccc2Cl)c1	i
O=C(COc1ccc([N+](=O)[O-])cc1)NCc1cccnc1	i
Cn1c(C2CC(=O)N(c3cccc4ccccc34)C2)nc2ccccc21 (stereo unspecified)	i
O=C(CSc1nc2sc3c(c2c(=O)n1-c1ccccc1)CCC3)N1CCCC1	i
CC(=O)c1ccc(NC(=O)CSc2nc3ccccc3c(=O)[nH]2)cc1	i
COC(=O)c1cc(C)sc1NC(=O)CC1Nc2ccccc2NC1=O (stereo unspecified)	i
Cc1ccccc1Nc1nnc(-c2ccc(C)c(S(N)(=O)=O)c2)c2ccccc12	2.0%
CC(C)c1ccc(C(=O)NCc2ccc(S(N)(=O)=O)cc2)cc1	i

This is a subset; count on the stated rates, not on these rows.
